Rango-impB inh – Rango-importin beta binding inhibition; 340,000 tested, 0.031% active; Rango CFP/YFP FRET sensor + importin beta, 45 min; Potency, µM (highest dose often 92.2 µM), for the others: at the highest dose inhibition of complex formation; active = rising FRET ratio curve, often small or poorly fitted; inconclusive = mostly compound fluorescence or quenching in the first reads; inactive = flat curves in all reads;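 also: potency is read from the fitted curve at half-maximal effect; 0% = DMSO wells and 100% = buffer wells lacking importin beta; nearly all actives have a fitted effect of over 15% in size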
Target sequence (Q14974 whole entry, looked up): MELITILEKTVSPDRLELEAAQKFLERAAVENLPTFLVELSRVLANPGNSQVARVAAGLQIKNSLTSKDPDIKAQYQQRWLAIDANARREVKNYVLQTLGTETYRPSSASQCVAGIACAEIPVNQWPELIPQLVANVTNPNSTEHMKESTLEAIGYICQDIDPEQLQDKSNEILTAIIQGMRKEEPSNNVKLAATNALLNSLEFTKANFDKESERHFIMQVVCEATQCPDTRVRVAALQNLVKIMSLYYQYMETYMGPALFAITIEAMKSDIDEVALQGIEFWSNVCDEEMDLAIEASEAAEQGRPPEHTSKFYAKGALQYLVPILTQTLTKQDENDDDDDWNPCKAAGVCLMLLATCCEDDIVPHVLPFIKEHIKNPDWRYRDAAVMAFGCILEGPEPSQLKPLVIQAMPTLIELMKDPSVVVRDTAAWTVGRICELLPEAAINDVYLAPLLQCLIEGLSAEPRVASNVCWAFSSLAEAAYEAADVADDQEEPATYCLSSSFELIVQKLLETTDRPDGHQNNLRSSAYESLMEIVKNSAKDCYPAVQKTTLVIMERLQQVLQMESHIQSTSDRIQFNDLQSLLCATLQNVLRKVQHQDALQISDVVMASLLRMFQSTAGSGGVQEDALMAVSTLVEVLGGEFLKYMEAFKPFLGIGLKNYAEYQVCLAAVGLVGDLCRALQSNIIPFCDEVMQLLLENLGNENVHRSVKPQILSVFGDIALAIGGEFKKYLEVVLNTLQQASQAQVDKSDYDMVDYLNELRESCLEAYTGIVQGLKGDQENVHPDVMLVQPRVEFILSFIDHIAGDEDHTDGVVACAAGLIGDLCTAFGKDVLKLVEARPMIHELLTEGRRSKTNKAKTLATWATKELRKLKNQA
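Inhibition scored from the CFP 486 nm/YFP 530 nm FRET ratio 45 min after adding 0.125 microM importin beta to 50 nM Rango biosensor preincubated 5 min with compound (room temperature, PBS with DTT, Tween-20, BSA). No-importin wells as positive control.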
GLA inh pH 4.5 – blocks human alpha-galactosidase A at pH 4.5. P06280. AID 1467. purified enzyme, 4-MU-alpha-Gal fluorescence, pH 4.5. activity change, negative = inhibition, % at 105 µM. 230,000 tested, under 10 active; inconclusive = small, poorly fitted or top-dose-only inhibition, or a rising curve; inactive = flat fitted curve, though single readings scatter; no compound was filed as active;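 also: 0% = full activity with enzyme and -100% = basal without enzyme; dose as in the result columns while the protocol names 77 µM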
miR-21 FLuc – miR-21 reporter, rising signal; HeLa miR-21 FLuc reporter, luciferase, 48 h; Potency, µM (highest dose often 38.3 µM), for the others: at the top dose reporter change, positive = more light; 340,000 tested, under 10 active; AID 2288; active = well fitted rising curve with a large enough effect; inconclusive = small, poorly fitted or top-dose-only effect; inactive = no such curve, though single readings can be large or run the other way;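 also: % of control where 0% means no effect; miR-21 action dims this reporter so a rising signal means less miR-21 action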
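Compounds were titrated across several concentrations (up to approximately 40 uM) and incubated 48 hours with HeLa miR-21-FLuc reporter cells (miR-21 target sequence downstream of FLuc, endogenous miR-21). Readout was firefly luciferase luminescence after lytic detection reagent.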
Rango release inh – inhibition of RanGTP-driven Rango-importin beta dissociation; O95149+P62826; Biochemical FRET Rango-importin beta, RanGTP-induced dissociation; Potency, µM (doses to about 46.1 µM), for inactives: at the top dose activity change, negative = inhibition; 340,000 tested, 0.071% active; AID 540253; active means falling FRET ratio curve, often poorly fitted, with flat reads before Ran was added; inconclusive means other falling curves, or compound fluorescence or quenching; inactive means flat or rising ratio curve;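 also: potency is read from the fitted curve at half-maximal effect; % of control where 0% means no effect; nearly all actives have a fitted effect of over 45% in size; -100% = wells without RanGTP and RCC1; the record marks most hits as doubtful in a second field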
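Recombinant Rango FRET biosensor (EYFP–snurportin 1 IBB–cerulean CFP10) at 0.1 uM premixed with 0.25 uM importin beta in PBS, 1 mM DTT, 0.02% Tween-20, 0.1% BSA. Compound added 5 min; RanGTP-RCC1 (0.6 uM Ran, 2 mM GTP, 0.2 uM RCC1) then triggers release, read at 45 min.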
Active calls of the source: *; ? = inconclusive; . = not tested or not shown; [ ] = dose if it differs, or a comment. Not all compounds are listed; the hit share may differ from the screen's.

SMILES	Rango-impB inh	GLA inh pH 4.5	miR-21 FLuc	Rango release inh
CC1CCc2c(sc(NC(=O)CSc3ncnc4c3cnn4-c3ccccc3Cl)c2C#N)C1 (stereo not given)	-0.5%	3	0%	1%
CCC(C)(C)NC(=O)C(c1cccn1C)N(Cc1ccc(OC)cc1)C(=O)Cn1nnc2ccccc21 (stereo not given)	-1.0%	-1	-7%	20%
COCCN1C(=O)C(CC(=O)Nc2ccccc2)SC1=Nc1ccc(OC)cc1 (stereo not given)	-1.3%	9	2%	-11%
CCN(CC)c1ccc(NC(=O)c2ccccc2Br)cc1S(=O)(=O)Nc1ccccc1OC	2.8%	-8	-11%	-15%
O=C(NCc1ccccc1CN1CCOCC1)c1ccc(-n2cccn2)cc1	?	.	.	-7%
CC(C)CC(=O)NC(NCC1CCCO1)C(Cl)(Cl)Cl (stereo not given)	?	-12	1%	-12%
O=S(=O)(Nc1ccc2c(c1)nc1n2CCN(Cc2ccccc2)C1)c1ccc(F)cc1	?	0	6%	?
Cc1ccc2nc(N3C(=O)C(O)=C(C(=O)c4ccco4)C3c3cccc(O)c3)sc2c1 (stereo not given)	?	.	-27%	?
O=C(O)C(c1ccccc1)C1(O)CCC1 (stereo not given)	1.6%	.	.	-12%
CCC(C(=O)Nc1cccc(C(=O)O)c1)c1ccccc1 (stereo not given)	?	6	-8%	3%
Cc1ccc(C)c(N(C(=O)CCC(=O)Nc2cc(C)on2)C(C(=O)NC2CCCC2)c2ccco2)c1 (stereo not given)	0.5%	3	-2%	17%
C[C@H]1CN([C@@H](C)CO)C(=O)c2cccc(NC(=O)C3CC3)c2O[C@H]1CN(C)S(=O)(=O)c1cccs1	-0.5%	.	.	17%
CCSc1nnc(NC(=O)c2csc(C)c2)s1	-1.1%	-9	-35%	0%
CCOc1ccccc1OCCCC(=O)NC1CCCc2ccccc21 (stereo not given)	-0.3%	-21	-8%	-7%
COc1ccc(C(=O)C(CO)Oc2ccccc2OC)cc1OC (stereo not given)	-1.4%	7	-9%	0%

Single records, as listed above.
Cc1ccc(C)c(N(C(=O)CCC(=O)Nc2cc(C)on2)C(C(=O)NC2CCCC2)c2ccco2)c1 (stereo not given) is listed with Rango-impB inh: 0.5%; GLA inh pH 4.5: 3; miR-21 FLuc: -2%; Rango release inh: 17%
C[C@H]1CN([C@@H](C)CO)C(=O)c2cccc(NC(=O)C3CC3)c2O[C@H]1CN(C)S(=O)(=O)c1cccs1 is listed with Rango-impB inh: -0.5%; GLA inh pH 4.5: .; miR-21 FLuc: .; Rango release inh: 17%
CC(C)CC(=O)NC(NCC1CCCO1)C(Cl)(Cl)Cl (stereo not given) is listed with Rango-impB inh: ?; GLA inh pH 4.5: -12; miR-21 FLuc: 1%; Rango release inh: -12%

Carrying on.
SMILES	Rango-impB inh	GLA inh pH 4.5	miR-21 FLuc	Rango release inh
Cn1c(SCC(=O)Nc2ccc(C(=O)O)cc2)nc2scc(-c3ccccc3Cl)c2c1=O	1.5%	.	.	-7%
O=C(/C=C/Nc1cccc(F)c1)c1ccco1	?	-7	-56%	?
COc1ccc(-n2cc(CNCCCN3CCCC3=O)c(-c3ccccc3Cl)n2)cc1	-2.1%	7	0%	2%
COc1cc2nc(N(CCN(C)C)C(=O)c3ccc4ccccc4c3)sc2cc1OC	-2.3%	.	-5%	-12%
CC(C)Sc1nc2ccccc2[nH]1	0.0%	1	-5%	-5%
COC(=O)c1sccc1-n1cccc1C(=O)C(=O)N1CCCC1	-0.1%	-22	-1%	0%
Cc1cc(-c2nnc3n2N=C(c2ccccc2)CS3)n[nH]1	1.0%	0	-11%	12%
O=C(c1ccc(Cl)cc1Cl)c1ncc(C(F)(F)F)cc1Cl	-4.3%	-17	-3%	-15%
CC(C(=O)Nc1ccc2[nH]c(=O)[nH]c2c1)N1CCN(Cc2ccc3c(c2)OCO3)CC1 (stereo not given)	-0.3%	.	.	7%
COc1ccc(S(=O)(=O)N2CCC(C(=O)NCCC(=O)NC3CC3)CC2)cc1	-0.2%	.	2%	23%
CCN(CC)C(=O)C(=O)c1cccn1-c1c(Cl)cccc1C#N	-2.0%	3	1%	-17%
c1cc2c(cc1NC1CCCCCC1)OCO2	1.3%	.	-8%	-12%
CN(C)S(=O)(=O)c1ccc(C(=O)NCc2nc3ccccc3s2)cc1	0.3%	.	-10%	-6%
O=C1NC2(CCCCC2)N(C(=O)c2ccccc2)C2=C1CCCC2	-3.7%	-4[21.1 µM]	-2%	1%
COC(=O)COc1ccc(S(=O)(=O)NCC2CCCO2)cc1Cl (stereo not given)	-3.2%	2	-1%	0%

Quoted from the listing:
C[C@H]1CN([C@@H](C)CO)C(=O)c2cccc(NC(=O)C3CC3)c2O[C@H]1CN(C)S(=O)(=O)c1cccs1 – Rango-impB inh = -0.5%
Cn1c(SCC(=O)Nc2ccc(C(=O)O)cc2)nc2scc(-c3ccccc3Cl)c2c1=O – Rango-impB inh = 1.5%
CCSc1nnc(NC(=O)c2csc(C)c2)s1 – Rango release inh = 0%
O=C(/C=C/Nc1cccc(F)c1)c1ccco1 – miR-21 FLuc = -56%
COc1ccc(S(=O)(=O)N2CCC(C(=O)NCCC(=O)NC3CC3)CC2)cc1 – Rango-impB inh = -0.2%

Later entries:
SMILES	Rango-impB inh	GLA inh pH 4.5	miR-21 FLuc	Rango release inh
COC(=O)c1cc(C(=O)N2CCN(C(=O)c3ccco3)CC2)cc([N+](=O)[O-])c1	-1.7%	.	-2%	-8%
COc1cc(C2C3C(=O)N(c4ccc(F)cc4)C(=O)C3ON2c2ccccc2)ccc1O (stereo not given)	1.4%	-7	-5%	2%
COc1cc([N+](=O)[O-])ccc1N1C(=O)C2C3C=CC(C4CC34)C2C1=O (stereo not given)	3.4%	5	0%	18%
CCc1ccccc1NC(=O)c1cc(=O)c2ccccc2o1	-6.1%	-4	-21%	4%
COc1cccc(NC(=O)CCC(=O)Nc2cccc(OC)c2)c1	-0.2%	-5	9%	-4%
Cc1cccc(NC(=O)c2cnc3n(c2=O)CCS3)c1	6.8%	3	-35%	1%
COc1ccc(-c2cc(C3CC3)nc(N)c2C#N)cc1	0.4%	.	-16%	2%
Cn1c(=O)c2c(nc(NCCCO)n2C/C=C/c2ccccc2)n(C)c1=O	5.7%	-4	4%	0%
CC1CC1C(=O)N1CCN(S(=O)(=O)c2cc(C(F)(F)F)cc(C(F)(F)F)c2)CC1 (stereo not given)	1.1%	.	.	6%
CC(NC(=O)COC(=O)c1cccnc1Cl)C12CC3CC(CC(C3)C1)C2 (stereo not given)	-0.3%	.	.	30%
Cc1ccc2c(CN3CCCCC3C)cc(=O)oc2c1 (stereo not given)	3.0%	.	-7%	-2%
CCOC(=O)/C=C1\SCC(=O)N1CC(=O)Nc1cc(S(=O)(=O)N(C)C)ccc1C	2.4%	.	.	-6%
CCc1ccc(CN(C)C(=O)CCc2nnc(CCc3ccccc3OC)o2)nc1	-2.1%	-9	-6%	8%
CCn1c(SCC(=O)Nc2ccccc2)nc2nc3c(cc2c1=O)COC(C)(C)C3	-2.5%	-12	7%	-15%
Cc1ccc(-c2nc(=S)c3c(n2CC2CCCO2)CC(C)(C)OC3)cc1 (stereo not given)	-0.1%	3	0%	-2%
COc1ccc(-c2nc(C#N)c(N3CC(C)OC(C)C3)o2)cc1OC (stereo not given)	8.6%	8	-14%	25%
O=C(O)C1CCN(C(=O)c2ccc(Cl)cc2)CC1	1.8%	-5	-1%	-11%
COc1ccc(CNC(=O)CSc2ncn[nH]2)cc1OC	-2.4%	.	-3%	2%
COc1ccc(N2C(=O)CC(Nc3ccc(F)cc3)C2=O)c([N+](=O)[O-])c1 (stereo not given)	0.9%	-8	-1%	-12%
O=C(NC1(C(F)(F)F)NC(=O)N(Cc2ccccc2)C1=O)c1cccnc1 (stereo not given)	0.2%	2	-1%	-13%
CC(=O)C(Cc1ccccc1)NC(=O)COc1ccc2c(c1)OCO2 (stereo not given)	-1.5%	.	.	3%
C=C1CN(Cc2ccccc2)S(=O)(=O)c2ccccc21	6.7%	-1	-2%	0%
O=c1oc2ccccc2nc1/C=C(O)/C=C\c1ccccc1	-3.7%	8	-31%	-15%
Cc1nn(-c2ccccc2)c(N)c1Sc1ccc([N+](=O)[O-])cc1	-2.4%	7	10%	4%
COc1ccc2c(c1OC)C(=O)OC2CC(=O)c1ccc(O)c(O)c1 (stereo not given)	3.7%	-11	-2%	-11%
CC1CCN(S(=O)(=O)c2cccc(C(=O)Nc3nncs3)c2)CC1	1.5%	.	-2%	10%
C=CCn1c(C)c(C(=O)OCC)c2cc(O)c3ccccc3c21	1.8%	.	1%	7%
CCOc1cc(/C=N/NC(=O)CN2CCOCC2)ccc1OCc1ccc(Cl)cc1	-5.5%	-17	-1%	1%
Cc1ccc(CCN2CC(C(=O)NCc3ccc4c(c3)OCO4)CC2=O)cc1 (stereo not given)	4.4%	-3	6%	13%
COc1ccc(-c2nnc(SCC(=O)Nc3nncs3)o2)cc1	-1.8%	5	-22%	11%
CCOC(=O)N1CCN(S(=O)(=O)Cc2ccccc2)CC1	4.6%	4	-1%	-12%
COc1ccc(S(=O)(=O)N2CCOC2CNC(=O)C(=O)NCCc2c[nH]c3ccccc23)cc1 (stereo not given)	0.8%	1	17%	-3%
O=Cc1c(F)cccc1N1CCCC1	-0.6%	-11	-2%	13%
COC(=O)C(Cc1ccc(OC(=O)c2ccc(Cl)cc2)cc1)N1Cc2ccccc2C1=O (stereo not given)	0.1%	-5	-43%	-12%
O=C(Nc1ccc2oc(-c3ccccc3)nc2c1)c1cccs1	-1.3%	-1	-60%	-7%
CCOc1ccccc1N1CC(C(=O)NNC(=O)c2ccc(F)cc2)CC1=O (stereo not given)	0.3%	.	.	-7%
Clc1ccc(SCNc2ccccc2Cl)cc1	-0.8%	5	-2%	0%
NC(=O)N/N=C/c1cn(-c2ccccc2)nc1-c1cccs1	-1.7%	?	-53%	12%
Cc1ccc(NC(=O)CSc2nc(=O)n(CCCN3CCOCC3)c3c2CCCC3)c(C)c1	-0.5%	.	.	-2%
CS(=O)(=O)N1CCC(Oc2cccc(C(=O)NCCCOc3cccnc3)c2)CC1	-2.0%	.	22%	8%
CCS(=O)(=O)Nc1ccc2[nH]c(=O)[nH]c2c1	-1.6%	1	2%	-4%
CCCS(=O)(=O)N1CCN(Cc2ccccc2C(F)(F)F)CC1	-4.4%	7	-3%	-3%
COc1ccc(-c2noc(CCCC(=O)N3CCN(c4cc(C)ccc4C)CC3)n2)cc1	-1.0%	.	.	-13%
CN(C(=O)CSc1ncnc2ccccc12)C1CCCCC1	-2.9%	.	.	-7%
O=C(Nc1ccc2c(c1)OCO2)c1ccc(Br)o1	-1.7%	-8	-44%	4%
CC(C)NC(=O)c1ccc(-c2cc(C(F)(F)F)ccc2Cl)o1	2.6%	-2	-4%	-5%
Cc1ccc(Cn2nnc(C(=O)Nc3cc(C)ccc3C)c2N)cc1	2.2%	-2	-3%	1%
Cc1ccc(S(=O)(=O)N(OCc2ccccc2)C(C)C(=O)O)cc1 (stereo not given)	-2.1%	.	.	17%
COc1cccc(CC(NC(C)=O)C(=O)NC2CCN(c3nc(C)cc(C)c3C#N)CC2)c1 (stereo not given)	0.2%	0	-5%	0%
Cc1cc(=O)oc(C)c1C(=O)OCC(=O)c1ccc2ccccc2c1	-3.2%	4	-15%	6%
COc1ccc2c(c1)c(C(=O)CN1CCOCC1)c(C)n2C	-0.4%	-13	-2%	-4%
CC(=O)N1C(=O)C2(C(C#N)=C(N)Oc3cc(C)oc(=O)c32)c2ccccc21 (stereo not given)	-3.1%	6	1%	8%
CCN(CC)CCNc1nc2nonc2nc1NCCN(CC)CC	-3.5%	4	-5%	11%

Source: PubChem BioAssay
